# From PubChem
# HIV Env fusion: HIV envelope-mediated fusion inhibition | HeLa-JRFL Env/CEM21 cell fusion, luciferase | inhibition, % at 12.3 µM | 360,000 tested, 1.1% active;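 active = mean replicate inhibition score of at least 50 and every replicate individually at or above 50; inconclusive = only one of the two criteria met; inactive = mean below 50 and not all replicates reaching 50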;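 note: 0% = plate neutral controls and 100% = maraviroc near 300 nM; one replicate is shown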
# CSC inhib: cancer stem cell inhibition; AID 2717; 300,000 tested, 1.1% active; cancer stem cell-like cells viability, luminescence; inhibition, % at 7.5 µM;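 active = mean at 75% or more and at least half the replicates too; inconclusive = mean and replicates disagree; tested in HMLE shEcad cells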;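 note: 0% = median of negative and 100% = median of positive control wells; the first replicate is given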
# MT1-MMP act inh: inhibitors of human MT1-MMP activation | HT1080 RFP-PRO-GFP cells, GFP/RFP ratio fluorescence, overnight; percent of plate control window, DMSO zero | 360,000 tested, 0.061% active | P50281 | GFP/RFP ratio change, % at 20 µM;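 active = GFP/RFP ratio change of at least 30% with cell ATP level not reduced by more than half and red fluorescence within 50% of control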; note: strong numbers were not always called active
#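 Material – HT1080 RFP-PRO-GFP cells · Control set – DMSO wells and RFP-L50D-GFP cells · Incubation – overnight cell settling, then overnight compound exposure, 37 °C, 5% CO2 · Compound dosing – single-point 20 µM compound, 1% DMSO · Read-out – GFP/RFP fluorescence ratio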
# PABP FP inh: blocks human PABP binding to poly(A) RNA. P11940. AID 2014. inhibition, % at 35 µM. 290,000 tested, 1% active. fluorescence polarization;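 active = 50% or more with normal probe brightness, or confirmed in later tests; inconclusive = above 50% with abnormal brightness, or retests that disagree; inactive = below 50% or failed in later tests; about a fifth of its hits are not listed in these tables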;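 note: calls also rest on retests at 20 µM and on dose response follow-up; controls were probe without protein and protein plus probe with vehicle; some compounds called inactive have numbers as strong as hits; many hits fall short of the cut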
# Target sequence (P11940 whole entry, looked up): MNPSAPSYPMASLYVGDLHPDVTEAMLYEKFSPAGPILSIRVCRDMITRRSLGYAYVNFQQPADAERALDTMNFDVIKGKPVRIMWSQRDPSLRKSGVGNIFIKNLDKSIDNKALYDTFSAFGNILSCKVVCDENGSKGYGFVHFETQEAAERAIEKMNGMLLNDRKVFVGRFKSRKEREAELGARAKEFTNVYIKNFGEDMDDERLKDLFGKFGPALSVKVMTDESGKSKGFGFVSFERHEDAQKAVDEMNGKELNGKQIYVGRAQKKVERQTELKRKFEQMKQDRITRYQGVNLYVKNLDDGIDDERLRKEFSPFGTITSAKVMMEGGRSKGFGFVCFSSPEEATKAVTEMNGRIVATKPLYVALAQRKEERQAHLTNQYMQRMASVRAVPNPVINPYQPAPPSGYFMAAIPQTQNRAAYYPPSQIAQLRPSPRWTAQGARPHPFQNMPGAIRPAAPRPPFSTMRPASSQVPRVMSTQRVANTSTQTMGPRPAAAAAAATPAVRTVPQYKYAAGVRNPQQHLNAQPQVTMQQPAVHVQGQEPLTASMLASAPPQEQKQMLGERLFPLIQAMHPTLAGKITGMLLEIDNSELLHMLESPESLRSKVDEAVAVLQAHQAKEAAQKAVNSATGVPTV
# Yeast UUG start: alters start codon recognition fidelity in yeast; S. cerevisiae UUG-firefly luciferase reporter, luminescence/redox ratio; activity score, % at 18.7 µM; 350,000 tested, 0.13% active; AID 602363;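 active = replicate mean at a twofold rise or more, about +100% in these data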;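 note: firefly luciferase made from a UUG start codon reports start codon fidelity; reporter light over untreated wells divided by growth signal over untreated wells; some hits fall short of that in this replicate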
# eIF4H FP inh: inhibitors of RNA binding by human eIF4H. eIF4H fluorescence polarization binding assay. 290,000 tested, 0.94% active. AID 2012. inhibition, % at 35 µM;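 active = 50% or more with normal probe brightness, or confirmed in later tests; inconclusive = above 50% with abnormal brightness, or retests that disagree; inactive = below 50% or failed in later tests; about a fifth of its hits are not listed in these tables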;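 note: calls also rest on retests at 20 µM and on dose response follow-up; 0% = protein and probe with vehicle and 100% = probe without protein; strong numbers were not always called active; many hits fall short of the cut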
# Rce1 inh: yeast Ras-converting enzyme inhibition; 290,000 tested, 0.27% active; yeast membranes, quenched prenylated peptide cleavage fluorescence; calls only; Q03530; AID 2563;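 active = fall in fluorescence gain of 50% or more versus controls, with final raw signal at or below 3038400; inconclusive = same 50% fall but final raw signal above 3038400; inactive = fall in fluorescence gain under 50%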;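 note: plate controls were neutral control wells for no effect and wells lacking membranes for full effect; tested at 10 µM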
# MT1-MMP act inh RFP: further read-out of MT1-MMP act inh, marked with its call; RFP signal change, %; measured here: RFP expression control read;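 0 = vehicle wells; hits needed this value within 50% of zero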
# An asterisk follows results filed as active; i = inactive; ? = inconclusive; . = no result given.
structure,HIV Env fusion,CSC inhib,MT1-MMP act inh,MT1-MMP act inh RFP,PABP FP inh,Yeast UUG start,eIF4H FP inh,Rce1 inh
Cc1cccc(N(C(=O)Cn2nnc(-c3ccccc3F)n2)C(C(=O)NC(C)(C)C)c2ccncc2)c1 (stereo unspecified),-19.1,-17.4,4.4,-3.4,1.4,.,2.2,i
C=CCN(CC(=O)NCc1ccccc1)C(=O)c1csnn1,10.1,.,-3.2,2.0,-2.0,-3.8,-1.6,i
O=C(NCc1ccccc1)C1CCCN(S(=O)(=O)c2ccc(Br)cc2)C1 (stereo unspecified),0.9,16.1,-9.3,-11.7,2.3,-5.9,-9.8,i
CCOC(=O)C1=C(CC)OC(N)=C(C#N)C1c1ccc(OC)cc1OC (stereo unspecified),2.1,-10.8,0.5,3.4,28.0,-11.1,-6.4,i
COc1ccccc1NC(=O)CN1CCN(C(=O)c2ccco2)CC1,.,-14.6,3.1,-0.8,7.4,-7.2,-11.9,i
COc1ccc(OCc2nnc(SC3CCOC3=O)n2-c2ccccc2)cc1 (stereo unspecified),.,-2.8,9.8,0.6,-1.8,.,-5.9,i
NC1=NC(=O)/C(=C/c2cn(CCC(=O)O)nc2-c2ccc(Cl)cc2)S1,10.8,1.6,3.4,6.9,7.9,.,-1.7,i
COCCNCC(O)CON=C1c2ccccc2-c2ccccc21 (stereo unspecified),-6.6,.,-0.8,1.9,5.5,.,8.8,i
Cc1ccc2[nH]c(C)c(CCN(Cc3cccnc3)C(=S)NC(C)(C)C)c2c1,-40.4,1.7,-0.3,2.5,-6.1,-11.4,-8.3,i
CC(=O)Nc1cccc(C(=O)OC(C)C(=O)NC2CCCc3ccccc32)c1 (stereo unspecified),6.0,-9.2,3.9,-0.9,2.9,-2.2,11.2,i
CC(C)=C1SC(N2CCN(c3cccc(Cl)c3)CC2)=NC1=O,.,26.5,-2.9,-3.3,6.0,.,-2.2,i
O=c1ccc(-c2ccccc2)nn1Cc1ccc(F)cc1Cl,2.8,4.5,-6.5,-5.4,-3.6,-4.2,-6.4,i
CCc1ccc(OCc2nnc(SCC(=O)NC3CCCCC3)o2)cc1,-3.9,2.6,-1.8,-0.3,10.1,-4.2,3.9,i
CCC1=Nc2cc(C(=O)O)ccc2Sc2ccc(Cl)cc21,-3.5,5.7,-0.6,2.7,5.0,-7.4,0.5,i
NC1=NC[C@@H](Cc2ccc(O)cc2)N1CCc1cccc2ccccc12,3.7,8.9,-1.4,0.4,-8.2,-5.1,-4.2,i
CCCCOc1ccc(Cc2n[nH]c(=S)n2N)cc1,-47.2,-0.7,13.6,-0.2,-8.2,-25.0,-7.3,i
Cc1cccc(C(=O)Nc2ccc3c(c2)C(=O)NC3=O)c1,6.6,4.2,1.0,4.2,-12.4,-12.8,-6.9,i
COc1ccc2[nH]c(C(=O)O)c(CCNC(=O)/C=C/c3ccc(O)c(OC)c3)c2c1,18.2,-7.6,-1.6,1.8,8.5,5.3,-3.2,i
N#CCOC(=O)c1c2c(nc3ccccc13)CCC2,9.7,5.5,-4.2,1.5,-3.8,-13.8,16.9,i
CCCCN1C(=O)CC(Sc2ncccc2C(=O)O)C1=O (stereo unspecified),2.6,-8.9,0.3,5.5,-3.1,-14.6,-7.1,i
CCOC(=O)c1cc2c(ccn2C)n1CC(=O)N1CCN(c2ccccc2)CC1,.,1.1,-1.5,0.1,34.4,-8.3,26.2,i
C=CCOc1ccc(CNc2ccc(NC(=O)CCC)cc2)cc1OCC,-11.3,-4.9,1.0,10.0,-6.2,.,-10.0,i
CN(C)NC(=S)NC1(C)CCS(=O)(=O)C1 (stereo unspecified),-16.0,-10.3,0.4,3.0,-8.2,-13.5,0.5,i
CC(C)OC(=O)c1c(F)c(F)c(N2CCOCC2)c(F)c1F,-33.4,-7.5,-3.4,6.2,3.5,-0.2,2.1,i
COc1ccccc1-n1cnc2cc(C(=O)NCC3CCCO3)ccc21 (stereo unspecified),.,-5.4,5.8,0.7,5.8,-12.6,4.8,i
COc1cccc(C(=O)NCCS(=O)(=O)N2CCN(C(=O)c3ccco3)CC2)c1,-5.7,-6.2,4.1,3.0,.,2.4,.,i
CCOC(=O)/C(C#N)=C/c1cc2ccccc2nc1N1CCOCC1,9.2,-1.4,-0.1,4.6,8.7,.,1.5,i
Cc1cccc2nc(-c3ccccc3)nc(N3CCC(O)(c4ccc(Cl)cc4)CC3)c12,.,5.3,-8.2,-8.7,0.2,-1.2,-2.9,i
CC(C)(C)C(CO)NC(=O)c1ccc[nH]1 (stereo unspecified),24.6,-1.5,2.6,5.2,.,-26.8,.,.
Cn1c(CNC(=O)c2ccc(Cl)cc2)nnc1SCC(=O)NC1CCCC1,7.4,-15.6,-0.1,2.2,-0.9,-12.2,-1.9,i

# Compounds from the list above with a furan ring, fused or not, in the order listed:
structure,HIV Env fusion,CSC inhib,MT1-MMP act inh,MT1-MMP act inh RFP,PABP FP inh,Yeast UUG start,eIF4H FP inh,Rce1 inh
COc1ccccc1NC(=O)CN1CCN(C(=O)c2ccco2)CC1,.,-14.6,3.1,-0.8,7.4,-7.2,-11.9,i
COc1cccc(C(=O)NCCS(=O)(=O)N2CCN(C(=O)c3ccco3)CC2)c1,-5.7,-6.2,4.1,3.0,.,2.4,.,i

# Going on with the list.
structure,HIV Env fusion,CSC inhib,MT1-MMP act inh,MT1-MMP act inh RFP,PABP FP inh,Yeast UUG start,eIF4H FP inh,Rce1 inh
O=C(Oc1ccc2c(c1)O/C(=C\c1ccncc1)C2=O)c1ccccc1,.,-2.6,-15.9,-7.1,2.2,.,?,i
O=C(Cn1c(=O)n(CCC(=O)N2CCCCC2)c(=O)c2sccc21)NCc1ccccc1,1.2,-5.9,-4.7,1.9,-2.3,-21.0,5.2,i
Cc1ccc(C)c(OCC(=O)N/N=C/c2c(C)nn(-c3ccccc3)c2Cl)c1C,-38.7,-4.7,-9.5,-8.8,5.3,.,-2.6,i
O=C(NCC(Cl)c1ccc2ccccc2c1)c1c(F)cccc1F (stereo unspecified),-9.8,-14.1,2.7,0.3,17.2,-6.6,5.8,i
Cc1c(Cl)cccc1NC(=O)CN1CCN(CCO)CC1,-4.2,-10.1,6.3,1.4,5.2,.,5.9,i
CCSc1nnc(N)s1,-12.3,-4.1,-0.5,-1.2,6.2,-10.3,-5.7,i
CCn1c(C)nnc1SCC(=O)Nc1ccc(C(C)=O)cc1,-11.4,-4.2,-1.6,2.9,0.9,-0.8,3.9,i
C=CCn1cc(/C=N\NC(=O)c2cc3c(ccc4ccccc43)o2)c2ccccc21,.,48.2,5.2,-1.8,-5.1,-6.1,-3.2,i
O=c1c2ccccc2ncn1-c1ccccc1[N+](=O)[O-],-4.0,-3.6,0.9,3.5,-7.2,-15.2,5.5,i
CCOc1ccc2nc(SCC(=O)Nc3nonc3C)[nH]c2c1,-3.9,-3.5,4.8,0.6,-9.6,.,-3.2,i
O=C(CCc1ccc(S(=O)(=O)N2CCOCC2)cc1)N/N=C/c1cccc(O)c1,9.8,.,5.3,1.6,-5.4,.,5.6,i
CCOC(=O)CN(c1cccc(C(C)=O)c1)S(C)(=O)=O,.,-7.6,6.7,3.1,-11.6,.,-9.8,i
O=C(c1cccnc1)C1Cc2ccccc2C1=O (stereo unspecified),-13.1,-0.6,0.8,0.6,?,-5.3,?,i
CC(C/C=N/NC(=O)COc1cc(Cl)ccc1Cl)c1ccccc1 (stereo unspecified),.,5.0,-7.6,-3.9,-1.1,-7.5,-2.0,i
Cc1ccc(Nc2cc(C)nc(NCc3ccccc3)n2)cc1,151.4*,?,-12.3,-21.4,4.3,.,5.7,i
O=C(N/C(=C/c1cccnc1)C(=O)N1CCOCC1)c1ccccc1Br,0.0,-8.9,-1.1,0.7,-5.2,.,-1.9,i
COc1cc(C(=O)NNC(=O)COc2ccc(Cl)cc2)ccc1OCC(=O)N1CCOCC1,.,7.7,5.0,1.1,.,-25.2,.,.
CCOC(=O)CN1CC23C=CC(O2)C(C(=O)NCCc2ccccc2)C3C1=O (stereo unspecified),9.6,-11.7,2.7,8.7,1.8,-9.1,4.1,i
c1ccc2c(c1)nc(Nc1ccc3c(c1)OCO3)c1nnnn12,.,-4.2,-4.1,9.9,12.6,.,4.9,i
O=C(c1ccco1)N1CCN(C(=O)C2CCN(S(=O)(=O)Cc3ccccc3)CC2)CC1,.,0.0,-0.6,-0.6,-5.6,-5.0,-2.1,i
CC(=O)Nc1cccc(-c2ccnc3c2CC(C)(C(=O)Nc2ccc(F)c(Cl)c2)O3)c1 (stereo unspecified),-17.0,.,0.7,-1.2,.,2.8,.,.
Cc1ccc(NC(=O)CN2C(=O)NC(C)(c3ccc4c(c3)OCO4)C2=O)cc1 (stereo unspecified),-27.5,-18.2,2.3,0.9,.,-7.7,.,.
Cc1cccc(NC(=O)c2ccc(NS(=O)(=O)c3cccc4cccnc34)cc2)c1,-18.6,.,1.1,0.0,.,8.3,.,.
COC(=O)c1ccc(CNC(=O)Cn2nnnc2CN(C)C(C)C)cc1,-0.5,-19.7,1.6,1.5,7.4,-21.3,7.6,i
CCCCn1nc(C(=O)NCc2ccccc2CN2CCCC2)c2ccccc2c1=O,1.5,3.2,-1.2,-1.6,.,-22.7,.,.
N#Cc1cnn(-c2ccc(F)cc2)c1N,4.6,-0.4,3.4,5.2,31.6,-14.4,26.8,i
Cc1nn(CCN)c(C)c1Cl,8.6,-7.4,3.1,4.3,4.2,.,-1.6,i
CCOc1ccc(S(=O)(=O)N2CCN(S(=O)(=O)c3ccc(OCC)cc3)C(C)C2)cc1 (stereo unspecified),-222.7,.,-0.7,-2.2,3.6,-17.4,-5.7,i
CCC(=O)Nc1cccc(-c2cn3cccc(C)c3n2)c1,-21.9,-4.6,2.9,7.7,7.0,-8.8,1.6,i
COC(=O)[C@]1(C)N[C@H](CN(C)S(=O)(=O)c2ccc(-c3ccccc3)cc2)[C@@H]2C(=O)N(Cc3ccccc3)C(=O)[C@@H]21,80.6*,.,-4.3,-4.1,.,-9.6,.,.
Cn1c(N)c(N=O)c(=O)n(C)c1=O,-0.4,-0.3,-1.1,-2.4,-2.1,-2.8,-1.9,i
CCc1ccc(NC(=O)COn2nnc3ccc(S(=O)(=O)N(C)C)cc32)cc1,-32.9,-7.8,2.5,-7.6,4.6,-6.2,-8.7,.
O=C(OCc1ccc([N+](=O)[O-])cc1)c1cc2ccccc2oc1=O,-26.6,-0.3,0.6,-0.2,.,-3.1,.,.
CC1CCCN(S(=O)(=O)c2ccc(S(=O)(=O)N3CCCC3)cc2)C1 (stereo unspecified),-15.0,-6.7,1.8,-1.1,-0.2,-12.2,16.0,i
CCCNC(=O)C1(C)CCCN(C(=O)c2cccnc2Oc2ccccc2)C1 (stereo unspecified),11.1,.,1.6,5.2,.,3.9,.,.
CCOc1ccccc1Oc1cn[nH]c1-c1ccc(OC)cc1O,.,-9.5,3.1,-10.5,4.7,-11.5,-3.1,i
CCC(=O)Nc1ccc(S(=O)(=O)NCc2ccco2)cc1,-25.9,-4.7,2.8,2.3,-5.3,-3.9,-0.7,i

# Fetched by compound from the list above, two records:
structure,HIV Env fusion,CSC inhib,MT1-MMP act inh,MT1-MMP act inh RFP,PABP FP inh,Yeast UUG start,eIF4H FP inh,Rce1 inh
Cc1nn(CCN)c(C)c1Cl,8.6,-7.4,3.1,4.3,4.2,.,-1.6,i
CCOC(=O)CN1CC23C=CC(O2)C(C(=O)NCCc2ccccc2)C3C1=O (stereo unspecified),9.6,-11.7,2.7,8.7,1.8,-9.1,4.1,i
